gsp antag – antagonizes gsp, the McCune-Albright syndrome mutation | Potency, µM (doses to about 76.9 µM), without a hit: top-dose activity change, negative = inhibition, actives largely listed as inhibitors | hit rate 0.4% among 340,000 | gsp-mutant cells, cAMP HTRF, 30 min; control for the full effect not named in the record | AID 624288; active = falling curve of any shape with a large fitted effect; inconclusive = falling curve, mostly with a smaller effect; inactive = flat or rising curve; cell line not stated here;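 further: intracellular cAMP measured with PDE inhibitor Ro 20-1724 present during compound exposure; potency means the concentration at half of the fitted maximal effect; on the % scale 0 is the no-effect control and ±100 the full control effect; nearly all actives have a fitted effect of over 65% in size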
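Cells in G418 medium, seeded 16-24 h, 37C; buffer exchange to DPBS + 1 mM CaCl2, 0.5 mM MgCl2, 0.05% BSA; cpds in DMSO + […] (300 uM stock), 30 min 37C; HTRF cAMP detection.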
gsp agonist – gsp mutant agonism | gsp mutant cells, cAMP HTRF, 30 min; control for the full effect not named in the record | hit rate 0.13% among 340,000 | Potency, µM (top dose mostly 76.9 µM), inactives show top-dose activation (cAMP increase), hits mostly activators; active = well fitted activation curve with a large enough effect; inconclusive = small, poorly fitted or top-dose-only effect, or another doubt; inactive = no such curve, though single readings can be large or run the other way; cell line not stated here;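 further: phosphodiesterase inhibitor Ro 20-1724 added with compounds to block cAMP breakdown; potency means the concentration at half of the fitted maximal effect; nearly all actives have a fitted effect of over 60% in size; about a fifth of the inactives were tested at one dose only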
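Cells in DMEM/10% FBS with G418 were pretreated with compounds in DMSO plus […] (300 uM stock) for 30 min at 37C. cAMP was measured by HTRF (cAMP-d2 plus anti-cAMP antibody-K) after 30 min at room temperature.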
PINK1 modulator – PINK1 expression modulation; AID 624263; PINK1 immunofluorescence, high-content cytometry, 24 h; Potency, µM (series often up to 76.6 µM), inactives show at the highest dose activation (PINK1 increase), hits mostly activators; hit rate 0.2% among 410,000; active = well fitted activation curve with a large enough effect; inconclusive = small, poorly fitted or top-dose-only effect; inactive = flat fitted curve, though single readings scatter; cell line not stated here;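 further: potency means the concentration at half of the fitted maximal effect; % of control where 0% means no effect; nearly all actives have a fitted effect of over 65% in size; a mitochondrial uncoupler was the plate control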
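Fluorescence from anti-PINK1 antibody, together with nuclear and cell stains, was scanned on a laser-scanning cytometer. Before staining, stable-line cells were incubated 24 hours with compounds at 5 concentrations; primary antibody 12 h at 10 degrees C.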
ClpP mod – qHTS Assay for Activators of ClpP | ATP-dependent Clp protease proteolytic subunit (Bacillus subtilis (strain 168)), P80244 | purified B. subtilis ClpP, FRET peptide cleavage, 20 min | Potency, µM (top dose mostly 57.5 µM), without a hit: at the highest dose activity change, negative = active | hit rate 1.9% among 340,000 | AID 651965, 2013; active = well fitted falling curve with a large enough effect; inconclusive = small, poorly fitted or top-dose-only effect; inactive = no such curve, though single readings can be large or run the other way; further: potency means the concentration at half of the fitted maximal effect; the source files actives as falling curves though it sought activators and does not explain the sign; nearly all actives have a fitted effect of over 65% in size; many hits overshoot -100%
Target sequence (P80244 whole entry, looked up): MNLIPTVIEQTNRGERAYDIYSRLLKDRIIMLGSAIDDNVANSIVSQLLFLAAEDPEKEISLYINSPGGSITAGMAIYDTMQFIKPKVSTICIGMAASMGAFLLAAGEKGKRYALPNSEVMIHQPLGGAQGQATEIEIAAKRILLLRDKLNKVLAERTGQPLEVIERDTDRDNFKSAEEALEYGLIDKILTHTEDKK
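Purified B. subtilis ClpP, 10 microg/mL final in Tris/HCl pH8 with KCl, BSA, glycerol and Tween-20, cleaved an Abz/nitrotyrosine-quenched decapeptide. Fluorescence (ex 320, em 430) was read at 0 and 20 min at room temperature. Delta was normalized to 5.8 microM ADEP and DMSO/no-enzyme controls.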
Sfp PPTase inh – Sfp phosphopantetheinyl transferase inhibition | Q9F4F7 | Biochemical Sfp PPTase activity, qHTS | Potency, µM, for the others: max response, negative = inhibition, usual class: inhibitors | hit rate 3.5% among 310,000; active means well fitted inhibition curve with a large enough effect; inconclusive means small, poorly fitted or top-dose-only effect, or another doubt; inactive means no such curve, though single readings can be large or run the other way;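 further: the enzyme is Sfp with the accession as filed and its product quenches rhodamine fluorescence; potency means the concentration at half of the fitted maximal effect; 0% = enzyme reaction without inhibitor and -100% = no enzyme wells; top concentration of the series not given in the record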
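Fluorescence-quenching assay: 15 nM Sfp-PPTase preincubated 15 min at room temperature with compound, then 5 uM rhodamine-CoA and 12.5 uM BHQ-2-labelled YbbR peptide added. Fluorescence (ex 525/em 598 nm) read at start and after 30 min; difference gives rate.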
Menin MLL FP FL – displaces fluorescein MLL peptide from human menin | Fluorescence polarization, fluorescein-MLL peptide displacement from menin | FP activity change, % at 61.4 µM | 290,000 tested, under 10 active | AID 1766; inconclusive = falling polarisation curve, or a change in total fluorescence; inactive = total fluorescence flat and polarisation flat or rising; no compound was filed as active; the % refers to the polarisation; negative = inhibition;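 further: % of control where 0% means no effect; inhibitors lower the polarisation; unlabelled MLL peptide was the positive control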
D2 ag – human D2 receptor agonism in beta-arrestin assay | hit rate 0.084% among 360,000 | activation, % (no concentration beside the values) | P14416 | DiscoveRx PathHunter D2 beta-arrestin, luminescence, 90 min; 100% = 57 uM dopamine signal; in the data active = activation above about 40%; inconclusive = about 15% to 40%; inactive = below about 15%; further: compound concentration not given in the record; the text of the record calls up to 30% inactive
Target sequence (P14416 whole entry, looked up): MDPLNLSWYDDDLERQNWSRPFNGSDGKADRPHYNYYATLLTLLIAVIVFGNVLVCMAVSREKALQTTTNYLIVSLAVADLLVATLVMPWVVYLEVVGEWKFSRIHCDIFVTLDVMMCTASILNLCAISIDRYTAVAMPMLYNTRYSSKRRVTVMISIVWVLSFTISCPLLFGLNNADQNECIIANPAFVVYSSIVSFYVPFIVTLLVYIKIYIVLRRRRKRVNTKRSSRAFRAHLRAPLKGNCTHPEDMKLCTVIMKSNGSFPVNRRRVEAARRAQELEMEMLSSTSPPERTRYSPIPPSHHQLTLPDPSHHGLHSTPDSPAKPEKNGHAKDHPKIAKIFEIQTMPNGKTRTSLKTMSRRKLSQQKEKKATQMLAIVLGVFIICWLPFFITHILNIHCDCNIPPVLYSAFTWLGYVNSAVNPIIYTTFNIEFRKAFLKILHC
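DiscoveRx PathHunter D2 beta-arrestin cells (2,100/well) attached overnight, then compound-stimulated 90 min at 37 C in HBSS/10 mM HEPES/0.1% Tween-20 buffer; beta-galactosidase complementation read by luminescence after 1 h at ambient temperature. Dopamine 57 uM final (EC100) as control.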
Active calls of the source: *; ? = inconclusive; nt = not tested or not shown; & = joins results of further samples; [ ] = another dose, or the depositor's remark.

SMILES	gsp antag	gsp agonist	PINK1 modulator	ClpP mod	Sfp PPTase inh	Menin MLL FP FL	D2 ag
O=C(NCc1cccnc1)c1cc(S(=O)(=O)N2CCCC2)c(Cl)cc1Cl	-39%	20%[15.4 µM]	1.4%	nt	19%	1.1	0.5
Cn1c(N)c(Sc2ccc([N+](=O)[O-])cc2)c(=O)n(C)c1=O	11%	-8%[15.4 µM]	0.7%	nt	14%	-0.6	-2.2
O=C(NCc1ccccc1)c1ccc(N2CCC3(CC2)CC(c2ccccc2)=NO3)c([N+](=O)[O-])c1	3%	nt	0.4%	0.2%	0%	-1.4	0.4
Cn1c(=O)c2c(nc(CN3CCC(C(N)=O)CC3)n2Cc2c(F)cccc2Cl)n(C)c1=O	-19%	6%	0.8%	-2.6%	13%	2.1	-3.6
CC1=NNC(=O)/C1=C\c1cn(-c2ccccc2)nc1-c1ccc(Cl)cc1	0%	?	-1.7%	-2.6%	7%	0.1	5.8
O=C1NC(=NCc2ccccc2)S/C1=C\c1ccccc1	-7%	8%	?	1.8%	-1%	0.5	-3.4
CCCCc1ccc(S(=O)(=O)N2CCC3(CC2)OCCO3)cc1	5%	-5%	4.2%	-5.2%	9%	nt	1.2
COc1cc(NC(=O)c2cc([N+](=O)[O-])ccc2NC(=O)CNCc2ccccn2)cc(OC)c1	-42%	23%[15.4 µM]	5.3%	1.1%	-14%	2.7	0.3
CSc1ccc(C#N)cc1NC(=O)c1ccccc1	0%	?	-1.0%	nt	14%	0.1	3.1
Cc1ccc(S(=O)(=O)N2CCN(C(=O)CCCOc3ccc(Cl)cc3C)CC2)cc1	-42%	-9%	-2.3%	1.6%	nt	nt	-5.8
CCCCc1cc(=O)oc2cc(C)cc(OC(C)C(=O)NCc3ccccn3)c12 (configuration not stated)	?	-30%	0.6%	4.3%	11%	-1.7	6.4
Cc1ccc(C)c(N2CCN(S(=O)(=O)c3ccc4c(c3)NC(=O)CC(=O)N4)CC2)c1	-2%	-51%[inhibitor]	3.9%	-4.4%	4%	0.2	-2.6
Cc1cccc(NC(=O)CNC(=O)CN2CCN(C)CC2)c1C	2%	-1%	0.8%	-2.4%	nt	nt	1.3
N#Cc1cnn2c(N)c(-c3ccc(Cl)cc3)cnc12	7%	-10%[15.4 µM]	-0.6%	nt	-8%	-2.7	4.5
O=C(Cn1cnc([N+](=O)[O-])c1)Nc1cc(Oc2ccc(Cl)cc2Cl)cc([N+](=O)[O-])c1	-3%	1%	-2.4%	-0.8%	-6%	2.2	1.0
CN(C(=O)COC(=O)CNC(=O)c1sc2ccccc2c1Cl)c1ccccc1	1%	?	2.7%	0.8%	12%	3.4	-3.6
CC(C)[C@H](NC(=O)c1ccccc1Cl)C(=O)OCC(=O)NC(=O)NC1CCCC1	-10%	-34%[inhibitor]	0.3%	1.2%	17%	nt	5.4
CCOC(=O)N1CCN(C(=O)CSCC(=O)Nc2nc(-c3ccc(Cl)s3)cs2)CC1	25µM*	-29%	?	1.6%	-17%	3.5	8.3
O=C(CSC1=NCCS1)N1CCN(c2ccc(Cl)cc2)CC1	1%	-9%	0.6%	-0.8%	8%	4.2	-4.9
C=CCC[C@H](Cc1ccc(F)cc1)C(=O)OC[C@@H](Cc1c[nH]c2ccccc12)NC(=O)[C@@H](CC=C)CC(=O)N(CCO)Cc1ccccc1	-6%	-6%	2.4%	-10%	nt	nt	0.4
CCOC(=O)c1ccc(NC(=O)C2CCCO2)cc1 (configuration not stated)	19%	-11%	2.4%	1.1%	6%	4.0	-4.4
CCCS(=O)(=O)N1CCCC(C(=O)NCCc2cccc(C)c2)C1 (configuration not stated)	8%	?	-2.4%	1.4%	8%	1.3	3.5
CCCCN1CNC(=S)N(c2ccc(C(=O)OCC)cc2)C1	14%	14%[15.4 µM]	0.6%	-0.7%	17%	3.2	-6.2
Cn1c(N)c(C(=O)COC(=O)COc2ccccc2C#N)c(=O)n(C)c1=O	0%	?	1.3%	1.4%	26%	-7.0	-4.1
CCOC(=O)COc1c(C(=O)OC)sc2ncccc12	3%	8%[15.4 µM]	-0.5%	25µM*	26%	-0.4	-1.6
Carrying on.
SMILES	gsp antag	gsp agonist	PINK1 modulator	ClpP mod	Sfp PPTase inh	Menin MLL FP FL	D2 ag
Cc1ccc(C)c(-n2c(Cc3cc(=O)[nH]c(=O)[nH]3)nnc2SC(C)C)c1	2%	-2%	0.2%	2.6%	-5%	1.4	-0.7
COC(CNC(=O)C(=O)NCC1CCCN1S(=O)(=O)c1cccs1)OC (configuration not stated)	12%	?	3.4%	-3.5%	nt	nt	5.4
O=C1C=C(C#Cc2ccccc2)C[C@@H](c2ccc(F)cc2)C1	nt	19%	3.5%	0.5%	nt	nt	-9.9
O=C(CSc1nnc(-c2ccccc2)c2ccccc12)NCCN1C(=O)CSC1=O	-9%	14%	4.5%	-1.5%	nt	nt	-3.1
S=c1nc(C23CC4CC(CC(C4)C2)C3)[nH][nH]1	9%	-70%[inhibitor]	1.3%	1.2%	56µM*	2.2	-6.3
CCNc1ncc2nc(-c3cn(C)c4ccccc34)c(=O)n(C)c2n1	nt	nt	13%	nt	10%	?	nt
O=C1CN(C(=O)C2CC2)c2ccccc2N1	19%	2%	-1.9%	2.2%	19%	-0.2	-3.7
CN(C)c1ccc2nc3ccc(=O)cc-3sc2c1	nt	-102%[inhibitor]	2.9%	-3.5%	nt	nt	?
O=C(N/N=C/c1cccc([N+](=O)[O-])c1)c1cc[n+](CCO)cc1	1%	-4%	0.6%	-3.8%	8%	-1.2	8.6
FC(F)(F)c1cccc(-n2c(Cn3nnc4ccccc43)n[nH]c2=S)c1	-8%	-5%	-1.0%	nt	89µM*	4.8	-5.9
CCc1ccc(CCC(=O)Nc2ccc(C(=O)O)cc2)o1	12%	-9%	-1.3%	-1.7%	-10%	nt	-2.4
CCC(=O)N(Cc1cc2c(C)ccc(C)c2[nH]c1=O)C1CCCCC1	-3%	-4%	1.6%	?	14%	3.5	-1.4
COC(=O)C[C@H]1c2ccccc2S(=O)(=O)N1C(C)C	9%	?	-1.0%	-0.7%&0.9%	nt	nt	0.8
CN(CC(=O)Nc1ccc2c(c1)OCCO2)CC(=O)Nc1ccc(F)c(F)c1F	-5%	-2%[15.4 µM]	-1.5%	0.8%	nt	nt	3.0
CC(C)(C)c1ccccc1NC(=O)COC(=O)CN1C(=O)NC2(CCCC2)C1=O	11%	-22%[15.4 µM]	1.9%	-0.2%	nt	nt	-3.2
CCC(=O)Nc1ccccc1C(=O)OCC(=O)c1ccccc1	0%	-27%	0.0%	1.0%	-3%	-3.6	-3.9
CC(=O)CSc1nnc(CN2C(=O)CSc3ccc(C(F)(F)F)cc32)n1C	-8%	24%	0.7%	-2.1%	-4%	-0.9	-6.0
Cc1c(-c2ccc(OCc3ccccc3)cc2)nc2ccccc2c1C(=O)O	6%	?	2.8%	0.2%	13%	-9.7	8.2
CC1(C(=O)Nc2cccc3c2CCCC3)CCN1C(=O)c1cccc(F)c1 (configuration not stated)	nt	nt	0.1%	2.0%	nt	nt	-4.8
Cc1ccc(NC(=O)CC(C)CC(=O)NCc2ccccc2)cc1Cl (configuration not stated)	-30%	?	-0.5%	1.6%	19%	0.3	-4.5
COc1ccccc1/C=C/C=N/NC(=O)CCn1cnc2ccccc21	-11%	-37%[inhibitor]	7.7%	nt	-2%	3.9	-2.4
CC(=O)Nc1ccc(CN(C)CC2CCCN(CCc3cccc(C(F)(F)F)c3)C2)cc1 (configuration not stated)	3%	-15%[15.4 µM]	4.4%	-1.7%	-2%	-5.8	-1.5
C/C(=N\O)C(C)/[N+]([O-])=C/c1nc(C)c(C)n1O (configuration not stated)	-8%	?	0.2%	62%	nt	nt	0.3
CCOC(=O)N1CCN(C(=O)c2cccc(N3C(=O)NC4CC3(C)Oc3ccccc34)c2)CC1 (configuration not stated)	-7%	11%	8.5%	0.2%	11%	nt	-0.7
CCN(CC(=O)Nc1c(F)cccc1F)C(=O)/C=C/c1ccc2ccccc2n1	-1%	5%	-0.8%	-0.6%	nt	nt	-4.0
The results go on:
SMILES	gsp antag	gsp agonist	PINK1 modulator	ClpP mod	Sfp PPTase inh	Menin MLL FP FL	D2 ag
COc1ccc(Nc2nc3ccc(OC)cc3s2)cc1	-10%	-4%[15.4 µM]	1.4%	nt	-10%	0.3	-4.5
O=C(N/N=C/c1cc(Br)ccc1O)c1ccccc1Cl	1%	3%	3.9%	-18%	2%	2.7	1.0
CCOc1ccccc1-c1nc2c(s1)CCc1onc(-c3ccc(OC)cc3)c1-2	3%	-47%[inhibitor]	4.4%	?	nt	nt	-2.8
CCOC(=O)c1c(-c2ccccc2)n(C)c2ccc(O)cc12	7%	?	0.9%[38.3 µM]	?	9%	0.7	0.7
CCN(C(=O)COC(=O)CC(C)c1ccccc1)c1c(N)n(Cc2ccccc2)c(=O)[nH]c1=O (configuration not stated)	7%	0%	0.7%	-1.1%	nt	nt	-1.6
O=C(Nc1cccc(F)c1)N1CC2(CCN(S(=O)(=O)c3ccccc3)CC2)C1	nt	nt	0.3%	nt	9%	-1.6	nt
N=C1c2ccccc2-c2ccccc21	0%	-55%	1.2%	nt	nt	nt	-0.5
O=[N+]([O-])c1ccccc1S(=O)(=O)N1CCc2ccccc2C1	1%	?	0.3%	nt	3%	0.3	-3.9
CCOc1ccc(Br)cc1S(=O)(=O)NCC(c1ccc(OC)cc1)N1CCOCC1 (configuration not stated)	-11%	?	2.3%	0.3%	nt	nt	-1.6
CCN(CC)CCCN(C(=O)c1ccc(OC)cc1)c1nc(-c2ccc(OC)cc2)cs1	-5%	-79%[inhibitor]	-0.8%	nt	-12%	-0.4	4.6
O=c1[nH]c2cc(Cl)ccc2n1-c1ccccc1	14%	-59%[inhibitor]	-0.1%	-0.3%	16%	-0.4	3.6
COc1ccc(C(=O)NCc2ccc3c(c2)OCO3)cc1S(=O)(=O)NCc1ccc(Cl)cc1	-11%	20%[15.4 µM]	1.1%	-0.4%	1%	-1.2	-1.2
CCN(CC(=O)Nc1ccccc1C(F)(F)F)C(=O)CCOc1ccc(C)cc1	-7%	-11%[15.4 µM]	1.2%	-1.2%	nt	nt	-4.1
Nc1ccc2c(=O)[nH][nH]c(=O)c2c1	-1%	4%	0.7%	nt	nt	nt	-7.6
COc1nc(N2CCCCCC2)nc(N2CCCCCC2)n1	-10%	-31%[inhibitor]	?	-7.0%	-7%	-0.9	-3.8
